HPGD block: blocks human HPGD enzyme activity | P15428 | purified HPGD, NADH fluorescence kinetic, PGE2 substrate | Potency, µM, inactives show at the top dose activity change, negative = inhibition, most hits filed as inhibitors | actives 4.3% (n = 150,000); active = well fitted inhibition curve with a large enough effect (not every such curve was filed as active); inconclusive = small, poorly fitted or top-dose-only effect, or another doubt; inactive = no such curve, though single readings can be large or run the other way;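 note: top concentration of the series not given in the record; plate controls included wells without enzyme; inactives centre near -10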
Target sequence (P15428 whole entry, looked up): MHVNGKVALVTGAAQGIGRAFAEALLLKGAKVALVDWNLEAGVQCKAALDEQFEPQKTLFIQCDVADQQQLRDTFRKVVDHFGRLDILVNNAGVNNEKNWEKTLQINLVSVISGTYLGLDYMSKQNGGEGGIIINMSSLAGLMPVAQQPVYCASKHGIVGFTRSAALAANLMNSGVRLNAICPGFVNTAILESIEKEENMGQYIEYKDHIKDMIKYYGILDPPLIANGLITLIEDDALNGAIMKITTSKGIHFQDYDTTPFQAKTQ
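NADH formation kinetics: reaction with 30 uM PGE2 and 1 mM NAD+ (final), 20 nM enzyme, Tris-HCl pH 8 with Tween 20, after 15 min compound preincubation at room temperature. Fluorescence change, last versus first of five reads.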
Active calls of the source: *; ? = inconclusive; & = joins results of further samples. % is set by controls: 0 for no effect and ±100 for the full control effect; potency is the fitted concentration of half-maximal effect. Some of the compounds tested; rates above refer to the full screens.

SMILES	HPGD block
CCC(CC)C(=O)OCC(=O)Nc1cc(OC)c([N+](=O)[O-])cc1C	-4%
Cc1ccc(NS(=O)(=O)c2ccc3c(c2)c(=O)n(C)c(=O)n3C)cc1F	5%
COC(=O)c1ccc(NC(=O)CNC(=O)C2CCCCC2)c(C)c1	-7%
CC1CCCC(C)N1C(=O)c1cc(F)c(F)cc1Cl (stereo unspecified)	-9%
CC[C@H]1C(c2cccc(Cl)c2)=NN(c2ccccc2)[C@@H]1CO	?
O=C(c1cccs1)N1CCC(c2ccccc2)C1 (stereo unspecified)	-18%
O=C(O)C1CCCN1S(=O)(=O)c1ccc2[nH]c(=O)c(=O)[nH]c2c1 (stereo unspecified)	-18%
COc1cc(CN2CCSCC2)cc(OC)c1OC	-9%
Cn1cccc1C(=O)N1CCC[C@@]2(CCN(Cc3cc(C(F)(F)F)cc(C(F)(F)F)c3)C2)C1	-10%
NC(=O)COC(=O)c1ccccc1Nc1ccc(SC(F)F)cc1	11µM*
Cc1ccc2c(c1)C(c1ccncc1)=NNC(c1ccc(C(C)C)cc1)=N2	-8%
COc1ccc(NC(=O)c2ccc(F)cc2)cc1S(=O)(=O)Nc1cc(C)ccc1Br	-12%
O=C(CCC(=O)c1cccs1)NCc1ccc(Cl)cc1	-15%
C[N+](C)(C)CCCCCC[N+](C)(C)C	-4%&8%&-1%&-9%
CCN(CC)c1ccc(CNC23CN4CN(CN(C4)C2)C3)cc1	-12%
CS(=O)(=O)N1CCc2cc(C(=O)N3CCOCC3)ccc21	-18%
CCOC(=O)c1nn(-c2ccc3c(c2)OCO3)cc1O	?
Cc1cc(NC(=O)CN2CCN(C/C=C/c3ccccc3)CC2)c([N+](=O)[O-])cc1C	-5%
Cc1noc(C)c1C(=O)OCC(=O)NC(=O)NC12CC3CC(CC(C3)C1)C2	-9%
COc1ccccc1C(=O)N1CCN(S(=O)(=O)c2ccccc2)CC1	0%
CCOc1cc(N2CCOCC2)c(OCC)cc1NC(=O)CN1CCc2ccccc2C1	-4%
O=C1c2ccccc2C(=O)C12OC2c1ccc(Cl)cc1 (stereo unspecified)	-20%
COc1cc2c(C(=O)O)c(C)n(CC(C)C)c2c2ccccc12	?
CCC(C)NC(=O)CCn1c(-c2ccccc2)cc(C(C)=O)c1C (stereo unspecified)	-5%
COc1ccc(CCCc2nnc(SCC(=O)Nc3cccc(C)c3)o2)cc1	-7%
CCCc1cc(=O)[nH]c(SCCOC(=O)c2ccccc2)n1	-21%
CCCCCCN=CC1=C(O)C(C(=O)OC)C(C)(C)CC1=O (stereo unspecified)	3%
O=C(c1ccc(F)cc1)C(CN1CCOCC1)c1ccccc1 (stereo unspecified)	-4%
FC(F)(F)C(Oc1nc(Nc2ccc(Cl)cc2)nc(N2CCOCC2)n1)C(F)(F)F	-18%
COC(=O)N1CCC2(CCCN(C(=O)Nc3ccccc3)C2)CC1	-6%
Cc1cc(C(=O)OC2CCOC2=O)c2ccccc2n1 (stereo unspecified)	-14%
CCCn1c(N2CCN(C(=O)N3CCCCC3)CC2)nc2ccccc21	-16%
O=C(CSc1nc2cc([N+](=O)[O-])ccc2n1-c1ccccc1)NCc1ccc2c(c1)OCO2	-16%
Cc1onc(-c2ccccc2Cl)c1C(=O)N1CCN(C(=O)c2ccco2)CC1	-7%
COc1cc(OC)cc(-c2nn[nH]n2)c1	-11%
CCOc1ccc(-n2cc(C(=O)NCc3ccco3)c3cc(OC)c(OC)cc3c2=O)cc1	-3%
COC(=O)C1=C(C)NC(=O)NC1C1CC=CCC1 (stereo unspecified)	-7%
COc1ccc(CC(=O)Nn2c(-c3ccccc3)nc3ccccc3c2=O)cc1	-1%
COc1ccc(-c2noc(CSc3nc4ccccc4c(=O)n3-c3ccc(C)cc3)n2)cc1	-6%
Cc1ccc(C)c(Nc2nc3nonc3nc2N2CCOCC2)c1	4%
CCC1CCCCN1CCCNC(=O)c1ccc(CS(=O)(=O)Cc2ccccc2F)o1 (stereo unspecified)	0%
Cc1ccc(Cn2ccc(=O)c(OCc3c(Cl)cccc3Cl)c2C)cc1	-11%
O=C(NNC(=O)c1ccc(Cl)cc1Cl)Nc1ccccc1	-5%
Cn1nc([N+](=O)[O-])nc1Sc1ccc(Cl)cc1	-6%
CCCCCC(=O)Nc1ccc2oc(-c3cccnc3)nc2c1	?
Cc1ccc(N(Cc2ccccc2)Cc2ccccc2)cc1	-5%
CCc1ccc(N(C2C=CS(=O)(=O)C2)S(=O)(=O)c2ccccc2)cc1 (stereo unspecified)	2%
Fc1ccc(CNc2ncnc3c2cnn3-c2ccccc2)cc1	-25%
Cc1ccc(-c2cc(-c3n[nH]c(=S)o3)c3ccccc3n2)cc1	?
CCCOCC1CC2(CC(C)(c3csc(N)n3)OC2=O)C(=O)O1 (stereo unspecified)	0%
(more compounds)
SMILES	HPGD block
c1ccc2c(c1)ncn2-c1ncnc2sc3c(c12)CCCC3	?
O=C(c1cccs1)N(Cc1ccco1)c1nc(-c2ccc(F)cc2)cs1	-5%
COc1cc2c(cc1OC)C1=C(C#N)CCC(=NC(=O)c3ccc(Cl)cc3)N1CC2	14µM*
COc1ccccc1C(=O)n1nc(-c2cccnc2)nc1N	-9%
O=c1oc2ccccc2c(N2CCCCC2)c1CN1CCCCC1	-20%
CC(C)NC(=O)NS(=O)(=O)c1cnccc1N1CCCCC1	-6%
O=C(CCC(=O)c1cccs1)OCc1nc2ccccc2s1	-11%
CS(=O)(=O)N1CCN(C(=O)c2cc(-c3cccs3)nc3ccccc23)CC1	?
O=C(c1ccccc1Br)N1CCN(c2ccccc2)CC1	-4%
O=C(NCCc1ccco1)c1nn(Cc2ccccc2)c(=O)c2ccccc12	-8%
O=C(O)CCC(=O)C(=O)O	-16%&3%
O=C(CSc1ccc2ccccc2c1)Nc1ccncc1	-2%
Cc1cccc(N2CCN(S(=O)(=O)c3ccc4c(c3)CCN4C(=O)CCC(=O)O)CC2)c1C	-5%
CC(=O)c1ccc(N2CCN(C(=O)C3CCCN(S(=O)(=O)c4cnc[nH]4)C3)CC2)cc1 (stereo unspecified)	-12%
O=C(CN1C(=O)COc2ccccc21)NCc1ccccn1	3%
Cc1ccc(CC2CC(=O)N(c3nc4ccccc4n3C)C2=O)cc1 (stereo unspecified)	-10%
CCN(CC)S(=O)(=O)c1ccc(N2CCCC2)c(C(=O)Nc2ccc(OC)c(Cl)c2)c1	?
COC(=O)c1ccc(C(NC(=O)OCc2ccccc2)/C(F)=C/[C@@H](C)C(=O)NCCO)cc1 (stereo partly specified)	-2%
CCCc1cc(-c2ccc(O)c(OCC)c2)c(C#N)c(N)n1	-9%
CCCCn1c(SCc2nnc(-c3ccccc3)o2)nc2c1c(=O)n(C)c(=O)n2C	?
CC(=O)Nc1cccc(C(=O)Oc2cccc(C)c2)c1O	-8%
CC(C)(C)c1ccc(C2CC2C(=O)N/N=C\c2cc3ccccc3nc2Cl)cc1 (stereo unspecified)	?
CC(C)c1nc2sc3c(NCc4ccco4)ncnc3c2c2c1COC(C)(C)C2	?
FC(F)(F)c1cccc(NC(=S)NC2CCCC2)c1	-16%
Cc1nc2ccccc2n1CC(=O)NCCN1CCOCC1	-8%
NS(=O)(=O)c1ccc(N2N=C(c3ccccc3)CC2c2ccccc2)cc1 (stereo unspecified)	?
O=C(Nc1ccc(NC(=O)c2ccco2)cc1)c1cnccn1	-21%
O=C(O)c1cc(N/N=C/c2ccc(N3CCOCC3)s2)ccc1Cl	?
CCCCn1cc(C(=O)c2cc(Br)ccc2O)cc(C#N)c1=O	-17%
CC1CC1C(=O)Nc1nc(-c2cccs2)c(-c2cccs2)s1 (stereo unspecified)	?
CS(=O)(=O)Nc1cccc(C2=NN(C(=O)c3ccccc3Cl)C(c3ccccc3O)C2)c1 (stereo unspecified)	-1%
Cc1ccc2c(CN3CCN(S(=O)(=O)/C=C/c4ccccc4)CC3)cc(=O)oc2c1	-9%
CCOc1ccccc1C(=O)NC(CO)C(=O)O (stereo unspecified)	-9%
O=C(NC1CCS(=O)(=O)C1)c1ccc(S(=O)(=O)NCC2CCCO2)cc1 (stereo unspecified)	-2%
CC(=O)Nc1ccc(NC(=O)C(C)OC(=O)/C=C/c2cn(-c3ccccc3)nc2-c2cccnc2)cc1 (stereo unspecified)	?
O=C(CC(NS(=O)(=O)c1ccc(Cl)cc1)c1ccco1)N1CCc2ccccc21 (stereo unspecified)	2%
Cc1nc(Nc2ccccc2)[nH]c(=O)c1CCC(C)C	-5%
CCOC(=O)N1CCN(C(=O)C2CC(c3cc(OC)ccc3OC)=NO2)CC1 (stereo unspecified)	-19%
CNc1cnn(-c2ccccc2)c(=O)c1Cl	3%
COc1cccc(C2=NOC(C(=O)NC(C)(C)C)C2)c1 (stereo unspecified)	-8%

Overlap with the part before: three compounds, followed by the next part.
SMILES	HPGD block
CCOC(=O)N1CCN(C(=O)C2CC(c3cc(OC)ccc3OC)=NO2)CC1 (stereo unspecified)	-19%
CNc1cnn(-c2ccccc2)c(=O)c1Cl	3%
COc1cccc(C2=NOC(C(=O)NC(C)(C)C)C2)c1 (stereo unspecified)	-8%
COc1ccc(-c2nn(-c3ccccc3)cc2C(=O)Nc2nccs2)cc1	-18%
COc1cccc(C(=O)N/N=C(/c2ccccc2)c2ccccn2)c1	-28%
CCn1cc(C(=O)Nc2ccc(OC)c(S(=O)(=O)N3CCCCC3)c2)c(=O)c2ccc(C)nc21	-6%
CC(C)(C)c1ccc(S(=O)(=O)NCC(=O)Nc2ccc(-c3nc4ccccc4s3)cc2)cc1	?
Cc1ccc(NC(=O)CSc2nc3c(c(=O)[nH]2)CN(Cc2ccc(F)cc2)CC3)cc1C	-18%
CC(C)OC(=O)c1c(NS(=O)(=O)c2ccccc2)sc2c1CCCC2	-19%
CCCN1CNC(=S)N(c2ccc(C(=O)OCC)cc2)C1	-11%
CCOc1ccc(N(CC)C(=O)COc2cc(=O)n(C)c3ccccc23)cc1	-8%
CCN1CCN(c2ncc3c(n2)CC(c2ccc(OC)c(OC)c2)CC3=O)CC1 (stereo unspecified)	-7%
CCCN(c1nc(C)cc(OC)n1)S(=O)(=O)c1ccccc1	-5%
CC(C)NC(=O)Cn1nc(C(F)(F)F)c2c1CCC2	-11%
O=C(COc1ccc(S(=O)(=O)NC2CCCCC2)cc1)NC1CCCCC1	2%
CCCOc1ccc2c3c(c(=O)oc2c1OCCC)CCCC3	?
CCOC(=O)c1cnc2ccc(OCC)cc2c1NCc1ccccc1	?
CC(Nc1ccc(Br)cn1)c1cc(Cl)ccc1O (stereo unspecified)	?
CCOC(=O)c1ccc(S(=O)(=O)N2CCN(C)CC2)cc1	-10%
CCOc1cc(N2CCOCC2)c(OCC)cc1NC(=O)CN1CCC(Cc2ccccc2)CC1	-12%
CCOc1cc(C(=O)Nc2cc(C)ccc2C)ccc1OCC(=O)N1CCCCC1	-9%
COc1ccccc1N(CC(=O)Nc1ccc2c(c1)OCO2)S(=O)(=O)c1ccccc1	-26%
CCc1ccc(-n2nnnc2SCC(=O)NNC(=O)c2ccco2)cc1	-9%
COc1ccc(-c2cc(=O)c3ccccc3s2)cc1	7.9µM*
Cc1cc(/C=C(\C#N)c2nnc(N3CCOCC3)n2-c2ccccc2)c(C)n1-c1ccccc1	-15%
CCc1cccc(OCCOCCN2CCCC2)c1	1%
Cc1cccc(N=Nc2c(C)nn(-c3ccccc3)c2N)c1C	16µM*
CN1C(=O)C(CC(N)=O)N(NC(=O)c2ccc(Cl)cc2)C1=S (stereo unspecified)	-8%
CC(C)(C)NC(=O)C(=O)NNC(=O)c1ccccc1	-9%
O=c1cc(-c2ccccc2Cl)oc2c([N+](=O)[O-])c(O)cc(O)c12	28µM*
Cc1ccc(-c2cc(C(=O)N/N=C/c3c(C)nn(C)c3C)c3ccccc3n2)cc1C	-18%
COc1ccc(CCC(=O)NCc2cnn(C)c2)cc1	0%
Cc1cccc(Oc2ncnc3onc(C)c23)c1C	4%
CNc1nc(SCc2ccccc2Cl)nc2c1CCCC2	-7%
CC1CC1C(=O)Nc1nc(-c2ccccc2)cs1 (stereo unspecified)	-20%
COc1ccc(S(=O)(=O)N2CCCC2C(=O)Nc2nc3c(s2)CCCC3)cc1 (stereo unspecified)	-15%
COC(=O)C1(C(=O)OC)C[C@H]2CON=C2[C@H]1c1ccccc1	-9%&-7%
Cc1ccc(-c2ccc(SCC(=O)N3CCc4ccccc43)nn2)cc1	-10%
Cc1ccc(S(=O)(=O)CC(=O)Nc2ccc(S(=O)(=O)Nc3onc(C)c3C)cc2)cc1	-29%
CC(C)/C=C1\CCCCC1N(C)C(=O)NC(C)C (stereo unspecified)	-1%
O=c1c(Cl)c(NCc2ccc(F)cc2)cnn1C12CC3CC(CC(C3)C1)C2	-16%
COC(=O)C1CSc2[nH]c(=O)sc2C1c1ccc(OC)c(OC)c1 (stereo unspecified)	3%
NC(=O)C1CCN(C(c2ccccc2)c2nnnn2C2CCCC2)CC1 (stereo unspecified)	-14%
CCCNC(=O)CCc1c(C)nc2nc(-c3cc(OC)cc(OC)c3)nn2c1C	-11%

Four entries from above, with the structure last:
HPGD block	Compound
-1%	CC(C)/C=C1\CCCCC1N(C)C(=O)NC(C)C (stereo unspecified)
-16%	O=c1c(Cl)c(NCc2ccc(F)cc2)cnn1C12CC3CC(CC(C3)C1)C2
3%	COC(=O)C1CSc2[nH]c(=O)sc2C1c1ccc(OC)c(OC)c1 (stereo unspecified)
-14%	NC(=O)C1CCN(C(c2ccccc2)c2nnnn2C2CCCC2)CC1 (stereo unspecified)

Molecules listed so far with a CF3 group:
SMILES	HPGD block
Cn1cccc1C(=O)N1CCC[C@@]2(CCN(Cc3cc(C(F)(F)F)cc(C(F)(F)F)c3)C2)C1	-10%
FC(F)(F)C(Oc1nc(Nc2ccc(Cl)cc2)nc(N2CCOCC2)n1)C(F)(F)F	-18%
FC(F)(F)c1cccc(NC(=S)NC2CCCC2)c1	-16%
CC(C)NC(=O)Cn1nc(C(F)(F)F)c2c1CCC2	-11%

Bioassay records: PubChem BioAssay, National Center for Advancing Translational Sciences (NCATS)
